Bead autofluor: flagged as autofluorescent in microsphere protease counterscreen. compound autofluorescence counterscreen, microsphere flow cytometry; hits give high values. fluorescence intensity (test concentration not listed). 360,000 compounds, 3.1% hits. AID 624483;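 active means at least 3 SD above the mean of all compounds, about 16000 in these data; inconclusive means too few beads counted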;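 further: 100 nL of 1 mM stock went into each well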
RN4220 kill: growth inhibition of S. aureus RN4220, primary screen, OD600. 16 h. inhibition, % (no concentration beside the values). 330,000 compounds, 0.33% hits. AID 1259311, 2017;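 active means z-score of -3 or lower and OD600 up to 0.18 on both plates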;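 further: plate controls were untreated cells for no effect and reference antibiotic for full effect; stock transfer was 100 nL into about 80 µL; one replicate is shown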
Mtb hypoxia inh: PubChem AID 1159583 | 300,000 compounds, 0.1% hits | M. tuberculosis hypoxia-regulated fluorescent reporter, fluorescence | fluorescence inhibition, % (test concentration not listed);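 active means 35 to 45% if threefold the growth effect, above 45% if 1.5-fold the growth effect; inactive means the rest, general growth blockers included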;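 further: wells of about 50 µL received 100 nL stock; 0% = vehicle wells and 100% = reference inhibitor wells; whole bacteria with a GFP reporter of the hypoxia response; strong numbers were not always called active; many hits fall short of the cut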
PrP UTR inh: inhibition of PrP 5' UTR reporter expression | 340,000 compounds, 0.35% hits | cell-based PrP 5' UTR mRNA reporter, plate reader | inhibition, % (test concentration not listed) | AID 488862, 2010;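 active means every replicate at 50% or more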;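 further: 0 = median of the neutral control wells; tested in H4 reporter cells; numbers are from one replicate; inactives centre near -14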
ugtP null kill: growth inhibition of ugtP-null S. aureus, primary screen, RN4220 ugtP deletion, OD600. 16 h; some inactives read as strong as hits. growth inhibition, % (no concentration beside the values). 330,000 compounds, 0.54% hits. AID 1259309, 2017;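 active means z-score under -3 and OD600 up to 0.15 on both plates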;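 further: plate controls were untreated wells for no effect and antibiotic for full effect; wells of about 80 µL received 100 nL stock; the first replicate is given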
BJeLR lethal: MLPCN primary cell-based screen for lethality selective to Ras in HRASV12 cells; inhibition, % (no concentration beside the values); BJeLR (HRASV12) viability, CellTiter-Glo ATP luminescence, 48 h; reference of the scale not given here; 300,000 compounds, 0.17% hits; AID 1554, 2009;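 active means replicate mean above 50%; inconclusive means above 50% but judged a plate artefact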;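 further: 50 nL library stock added to about 25 µL; numbers are from one replicate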
Mtb hypoxia inh growth: further read-out of Mtb hypoxia inh, marked with its call; growth inhibition, %; measured here: M. tuberculosis growth (absorbance);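 0% = vehicle and 100% = reference antibiotic; read after six days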
An asterisk follows results filed as active; ? = inconclusive; · = no result given; & = joins results of further samples.

1	COc1ccc(C(C(=O)NC2CCCC2)N(CCCO)C(=O)Cn2nnc(-c3ccc(C)o3)n2)cc1 (configuration not stated)
2	CS(=O)(=O)NN1C(=O)c2ccccc2NC1c1ccccc1 (configuration not stated)
3	CCC(C)NS(=O)(=O)c1ccc(OCC(=O)NCc2cccnc2)cc1 (configuration not stated)
4	O=C(CCCCC(=O)OCC1COCO1)OCC1COCO1 (configuration not stated)
5	CC(C)(O)C#Cc1ccc(C(=O)N2CCN(c3ccc(Cl)cc3)CC2)cc1
6	CCOC(=O)C1CCN(S(=O)(=O)c2ccc(-c3ccccn3)s2)CC1
7	OC1(c2ccc3c(c2)OCO3)CCN(Cc2ccccn2)CC1
8	CSc1ccc(/C=C(/NC(=O)c2ccco2)C(=O)N2CCCCCC2)cc1
9	CN=C1NN=C(c2cc(C)n(-c3ccc(Cl)cc3)c2C)CS1
10	Cc1cccc(N2CC(C(=O)Nc3cccc(S(=O)(=O)N4CCCCC4)c3)CC2=O)c1C (configuration not stated)
compound no.,1,2,3,4,5,6,7,8,9,10
Bead autofluor,5775,3263,4019,3787,4342,5421,8075,5648,4572,4599
BJeLR lethal,-6,3,-2,·,0,-7,-2,-4,-2,·
ugtP null kill,13,2,-2,3,11,-4,5,1,1,-10
Mtb hypoxia inh,-2,-9,7,7,12,0,5,5,-1,6
Mtb hypoxia inh growth,4,15,14,2,-5,9,0,8,10,5
PrP UTR inh,-14,-9,-8,-31,-26,·,-51,-10,-14,-27
RN4220 kill,2.0,-0.8,4.0,6.6,6.7,1.1,1.3,6.4,-3.3,0.2

Of the compounds above, these have four or more nitrogen atoms.
1	COc1ccc(C(C(=O)NC2CCCC2)N(CCCO)C(=O)Cn2nnc(-c3ccc(C)o3)n2)cc1 (configuration not stated)
9	CN=C1NN=C(c2cc(C)n(-c3ccc(Cl)cc3)c2C)CS1
compound no.,1,9
Bead autofluor,5775,4572
BJeLR lethal,-6,-2
ugtP null kill,13,1
Mtb hypoxia inh,-2,-1
Mtb hypoxia inh growth,4,10
PrP UTR inh,-14,-14
RN4220 kill,2.0,-3.3

(continued)
11	Cc1cnc(CN(C)C(=O)c2cc(COc3c(F)cccc3F)on2)[nH]1
12	Cc1ccc(C(=O)Nc2ccccc2NC(=O)c2ccc(C)o2)o1
13	COc1cccc(CN2C(=O)CN(C3CCCCC3)C(=O)C2c2ccc(F)cc2)c1 (configuration not stated)
14	Cc1cc(OC(C)C(=O)NCCN2CCOCC2)c2c(C)cc(=O)oc2c1 (configuration not stated)
15	NS(=O)(=O)c1ccc(CCNC(=O)NC2CCCCC2)cc1
16	Cc1nc2ccccc2n1CCC(=O)O
17	CC(=O)O/N=C(\N)Cc1ccc(-c2csnn2)cc1
18	CNC(=O)CSc1nc2[nH]ncc2c(=O)[nH]1
19	Cn1nc(C(F)(F)F)c(-c2cccc(C(F)(F)F)c2)c1NC(=O)c1ccco1
20	Cc1ccc(NC(=O)C2CCCN2S(=O)(=O)c2ccc3c(c2)n(C)c(=O)c(=O)n3C)c(C)c1 (configuration not stated)
compound no.,11,12,13,14,15,16,17,18,19,20
Bead autofluor,2813,2780,11562,6163,3480,4387,3219,2219,6253,5521
BJeLR lethal,1,0,9,-2,1,-5,7,-8,-9,-1
ugtP null kill,2,-6,-13,2,3,-7,·,9,-5,-2
Mtb hypoxia inh,7,-1,0,1,7,16,·,4,1,11
Mtb hypoxia inh growth,13,3,-5,-2,-3,5,·,7,-3,5
PrP UTR inh,-1,-3,-18,0,-13,-16,-21,-2,-11,-3
RN4220 kill,3.7,0.5,-0.7,1.6,6.3,5.6,·,2.8,2.5,1.9

21	CC(=O)c1cc(CC=C(C)C)c(O)c(CC=C(C)C)c1O
22	CCCCCCCCS(=O)CCC(=O)O (configuration not stated)
23	CCn1cc([N+](=O)[O-])c(C(=O)N2N=C(c3ccc(OC)cc3OC)CC2c2ccccc2O)n1 (configuration not stated)
24	O=C1Nc2cc(Cl)c(Cl)cc2N(O)N1c1ccccc1
25	CCOC(=O)c1c(C)nc2sc(C(N)=O)c(N)c2c1-c1ccc(OC)cc1
26	O=C(c1ccncc1)N1CCN(c2ccc3ccccc3n2)CC1
27	O=C(O)c1cc2ccccc2c(N=Nc2cccnc2)c1O
28	O=C(COc1ncnc2sccc12)Nc1ccc(F)cc1F
29	O=C(O)c1cc(S(=O)(=O)N2CCOCC2)c(Sc2ccccn2)cc1Sc1ccccn1
30	CC1CCN(c2nc3c(c(=O)[nH]c(=O)n3C)n2Cc2ccccc2)CC1
compound no.,21,22,23,24,25,26,27,28,29,30
Bead autofluor,2691,4160,2633,5408,3569,4222,6147,5546,2130,5640
BJeLR lethal,0,-1,4,-1,1,5,-1,4,-8,11
ugtP null kill,3,3,-11,13,10,0,2,7,14,11
Mtb hypoxia inh,·,7,3,9,14,0,0,5,·,6
Mtb hypoxia inh growth,·,-5,3,3,8,-6,2,9,·,8
PrP UTR inh,-24,-7,-12,-12,-15,-13,-12,-16,69*,2
RN4220 kill,-4.5,3.7,1.7,4.0,-5.3,-10,5.8,-1.2,-0.4,6.0

31	Cc1cc(C)c2nc(SCC(=O)Nc3ccccc3N3CCOCC3)c(C#N)cc2c1
32	CCCCNC(=O)c1ccc(SCC(=O)N(CC)CC)c([N+](=O)[O-])c1
33	Cc1nn(C)c(C)c1CN(Cc1nc(CCC(C)C)no1)C(C)C
34	O=c1c2ccc([N+](=O)[O-])cc2ncn1CCOc1ccccc1
35	Cc1ccc2cc(C#N)c(N3CCCN(S(=O)(=O)c4ccccc4)CC3)nc2c1
36	Cn1nc(C(=O)N2CCCc3ccccc32)c2ccccc2c1=O
37	N#C/C(=C\c1ccc(O)cc1)C(=O)N1CCCC1
38	COc1ccccc1C1CC(c2ccccc2)=NN1C(=S)Nc1ccccc1 (configuration not stated)
39	CCOc1cc(/C=C\[N+](=O)[O-])ccc1OCC(=O)Nc1ccccc1C
40	Cn1nnnc1SCC(=O)N1CCOCC1
compound no.,31,32,33,34,35,36,37,38,39,40
Bead autofluor,3279,3958,3188,5706,6295,4366,4280,7118,2315,8449
BJeLR lethal,-6,4,13,5,13,5,-4,6,23,-5
ugtP null kill,-2,0,2,·,-3,1,0,-6,·,-1
Mtb hypoxia inh,11,-6,9,·,10,16,2,7,·,6
Mtb hypoxia inh growth,1,12,1,·,9,4,-6,0,·,13
PrP UTR inh,-1,5,-17,-13,-17,-11,-17,-12,-27,-24
RN4220 kill,0.8,-0.2,1.5,·,12,2.6,5.6,2.8,·,5.7

41	O=C(CN1CC(c2ccccc2)CC1=O)OCc1cccc(Br)c1 (configuration not stated)
42	CCOC(=O)c1ccc(NC(=O)CNC(=O)c2ccco2)cc1
43	CC1=NNC(=O)C1CC(=O)NN=Cc1sccc1C (configuration not stated)
44	NNC(=O)c1sccc1OCc1cccc(C(F)(F)F)c1
45	CNC(=O)c1cc(NC(=O)CCn2nc(-c3ccccc3)c3ccccc3c2=O)ccc1OC
46	O=C(CN1C(=O)NC2(CCOc3ccccc32)C1=O)c1cccs1 (configuration not stated)
47	O=[n+]1cc(-c2cccc3ccccc23)n([O-])c2c1CCC2
48	CCOc1ccc(C(C(=O)Nc2ccc(F)cc2)N(C(=O)Cn2nnc3ccccc32)C2CC2)cc1 (configuration not stated)
49	Cn1nc(C(=O)NC2CCCc3ccccc32)ccc1=O (configuration not stated)
50	Cc1ccc(S(=O)(=O)N2CCCN(Cc3nc4ccccc4c(=O)[nH]3)CC2)cc1
compound no.,41,42,43,44,45,46,47,48,49,50
Bead autofluor,?,3299,·,4926,5812,3856,2954,5785,2731,·
BJeLR lethal,7,-1,·,7,-1,·,10,0,-2,·
ugtP null kill,6,14,6,4,-5,-1,-2,8,3,11
Mtb hypoxia inh,11,7,7,8,-19,3,·,8,13,-7
Mtb hypoxia inh growth,1,6,2,0,4,9,·,7,-5,-1
PrP UTR inh,-17,-19,·,-11,-18,-1,-26,-31,-16,-5
RN4220 kill,5.4,-7.9,4.3,1.7,-0.3,2.8,4.1,-2.7,1.6,5.4

51	CC(=O)c1nn(-c2cccc(Br)c2)cc1C(=O)c1ccc(C)cc1
52	CC1(c2cc([N+](=O)[O-])cc([N+](=O)[O-])c2)CC(C)(C)N(C(=O)c2ccccc2)c2ccccc21 (configuration not stated)
53	C=CCNC(=O)CN(c1ccc(OC)cc1OC)S(C)(=O)=O
54	CCCN(C(=O)c1nc2nc(C)cc(C)n2n1)c1c(N)n(Cc2ccccc2)c(=O)[nH]c1=O
55	COc1cc2cc(C(=O)N3CCN(Cc4ccc5c(c4)OCO5)CC3)c(=O)oc2cc1OC
56	NNC(=O)COc1ccc(-c2nccc(-c3ccc(F)cc3)n2)cc1
57	CC(C)NC(=O)CSc1nc2ccccc2n1CC(=O)N1CCc2ccccc21
58	CC1CCN(c2oc(-c3ccccc3Cl)nc2C#N)CC1
59	COc1ccc(S(=O)(=O)N(CC(=O)NC2CC3CCC2C3)c2ccccc2OC)cc1 (configuration not stated)
60	COCCn1c(N)c(C(=O)NS(=O)(=O)c2ccc(C)cc2)c(=O)[nH]c1=O
compound no.,51,52,53,54,55,56,57,58,59,60
Bead autofluor,?,8704,4072,3910,5816,3006,11029,4596,4001,4198
BJeLR lethal,2,2,-4,·,-4,-13,1,-2,-3,10
ugtP null kill,-3,38,-1,-2,1,3,0,1,4,10
Mtb hypoxia inh,16,7,-6,0,1,13,3,·,14,-4
Mtb hypoxia inh growth,1,17,-7,0,12,-4,-2,·,10,7
PrP UTR inh,-28,-29,-13,-19,-12,-8,-40,-40,-16,-34
RN4220 kill,12,-6.0,-5.0,-0.7,4.0,4.2,-0.7,6.5,4.9,4.1

Of the compounds above, 2 contain two or more sulfur atoms.
6	CCOC(=O)C1CCN(S(=O)(=O)c2ccc(-c3ccccn3)s2)CC1
29	O=C(O)c1cc(S(=O)(=O)N2CCOCC2)c(Sc2ccccn2)cc1Sc1ccccn1
compound no.,6,29
Bead autofluor,5421,2130
BJeLR lethal,-7,-8
ugtP null kill,-4,14
Mtb hypoxia inh,0,·
Mtb hypoxia inh growth,9,·
PrP UTR inh,·,69*
RN4220 kill,1.1,-0.4

(listing goes on)
61	Cc1cc(C(F)(F)F)c2c(C)nn(-c3ccccc3)c2n1
62	COc1ccc(N=N/C(=C\O)C(=O)c2ccco2)cc1
63	O=C(CN1CCN(c2ccccc2F)CC1)c1ccc(O)c(O)c1
64	CN(C)c1ccc(C(=O)OCC(=O)Nc2ccc(N3CCOCC3)cc2)cc1
65	COc1ccc(C(=O)N2CCCC(O)C2)cc1OC1CCN(C(C)C)CC1 (configuration not stated)
66	O=C(c1ccco1)N(Cc1cccc(Br)c1)C1CCS(=O)(=O)C1 (configuration not stated)
67	CN(/N=C/C=C/c1ccccc1)C1=NS(=O)(=O)c2ccccc21
68	O=C(C1CCCCC1)N1CCC(O)(c2ccc(Cl)cc2)CC1
69	N/C(=N\OC(=O)Cc1ccc([N+](=O)[O-])cc1)c1ccc([N+](=O)[O-])cc1
70	CCC(CC)c1nn2c(N)c(/C=C3\C=Nc4ccccc43)c(=O)nc2s1
compound no.,61,62,63,64,65,66,67,68,69,70
Bead autofluor,6455,3540,4346,4934,4620,5499,2006,3762,3252,·
BJeLR lethal,4,4,3,6,5,3,-10,5,-3,-2
ugtP null kill,10,1,0,-4,1,14,·,15,·,-11
Mtb hypoxia inh,-8,0,-3,-9,13,-6,·,17,·,3
Mtb hypoxia inh growth,-18,2,2,-10,10,-8,·,3,·,15
PrP UTR inh,-8,-8,·,-8,-27,-10,1,-28,-6,-19
RN4220 kill,-6.7,6.0,1.0,-3.0,2.7,7.7,·,3.3,·,14

71	COc1ccc(CCNC(=O)COc2ccc(-c3ccccc3)cc2)cc1OC
72	O=C(Nc1ccc(Nc2ccccc2)cc1)C(Cl)Cl
73	COc1ccc(C(=O)c2ccc(OC)cc2O)c(O)c1
74	CCC(C)Sc1cccc(-c2nc3ccc(C)cn3c2NCc2ccccc2)c1 (configuration not stated)
75	CCC(=O)Nc1nc2ccc(S(C)(=O)=O)cc2s1
compound no.,71,72,73,74,75
Bead autofluor,2418,1934,3841,3055&4600,4839
BJeLR lethal,-5,-1,15,0,-9
ugtP null kill,14,22,4,·,0
Mtb hypoxia inh,3,16,·,·,·
Mtb hypoxia inh growth,2,4,·,·,·
PrP UTR inh,-22,-21,-17,-14,-12
RN4220 kill,5.9,-4.3,11,·,-1.2

Source: PubChem
